Compound activity deposited in PubChem by ICCB-Longwood Screening Facility, Harvard Medical School.
S aureus helic: blocks Staphylococcus aureus DNA helicase. purified S. aureus helicase, fluorescence unwinding assay; about half of the hits fall short of the stated cut. inhibition, %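 (tested at about 80 µM)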. actives 0.05% (n = 120,000). AID 485395;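 active = both duplicates at 50% or more, or one of them with a favoured structure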;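 also: 0% = mean of negative control wells and 100% = mean of positive control wells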
MgrA DNA FP: modulators of Staphylococcus aureus MgrA DNA binding | fluorescence polarization | inhibition, %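 (about 10 µg/mL by stock and volumes)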 | actives 0.13% (n = 84,000);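 active = above 50% in either of two replicates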;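 also: 0% = protein plus DNA without compound and 100% = DNA alone without protein; higher means less MgrA bound to DNA so lower polarization; one replicate is shown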
An asterisk follows results filed as active; . = not tested or not shown; & = joins results of further samples. Some of the compounds tested; count on the stated rates, not on these rows.

Structure | S aureus helic | MgrA DNA FP
O=C(O)CSC(=S)N1CC2CC(C1)c1cccc(=O)n1C2 (stereo not given) | 13 | -1.1
COC(=O)c1ccc(CCl)o1 | 19 | -1.5
CC(C)(C)NP(C)(=O)C(C)(C)C (stereo not given) | 3 | -15
O=C(c1ccccc1)c1cc(Cl)ccc1NC(=O)C(Cl)Cl | . | 2.3
C[C@]12CCC(=O)C=C1CCC1C2CC[C@@]2(C)C1CC[C@@]2(O)CC#N (stereo not given in full) | -19 | 1.9
CCc1nc2ccccc2c(=O)n1-c1cccc(OC)c1 | 2 | -0.3
N#CC(CCN1CCN(c2ccccc2)CC1)(c1ccccc1)c1ccccc1 | 10 | -0.8
NCC(O)c1ccc(O)cc1 (stereo not given) | . | -4.7&0.3
CC(O)C1CCC2C3CCC4=CC(=O)CCC4(C)C3CCC12C (stereo not given) | . | -0.6
O=C1NC(=O)C([N+](=O)[O-])C(=O)N1 | . | -0.8
CN1CCN(C2CC3(C)C(CCC4C3CCC3(C)C(O)C(N5CCN(C)CC5)CC43)CC2O)CC1 (stereo not given) | 3 | -2.7
CC1=CC(=C2C(=O)NC(=O)NC2=O)C=C(C(F)(F)F)N1Cc1ccco1 | -10 | .
CCC1C(C#N)=C(N)Oc2c1c(=O)oc1ccccc21 (stereo not given) | . | -1.1
Clc1ccc2c(N3CCNCC3)ccnc2c1 | 3 | -0.6
CCn1c(=O)cc(OCC(=O)N2CCC3(CC2)OCCO3)c2ccccc21 | 15 | .
CCN(C)CCc1c[nH]c2ccc(OC)cc12 | 5 | .
CCOc1ccc(CN(CCc2ccc3c(c2)OCO3)Cc2ccccc2)cc1 | 5 | -0.1
CN[C@@H](C)[C@@H](O)c1ccccc1 | . | 0.9
O=C(Nc1ccccc1)Oc1ccccc1 | -13 | -1.1
CN1C2CCC1CC(O)C2 (stereo not given) | -10 | 2.8
CCC1(CC)C(=O)C=CNC1=O | . | 3.6&4.6
n1onc2c1NC1Nc3nonc3NC1N2 (stereo not given) | -48 | 15
O=c1[nH]c(CN2CC=C(c3ccccc3)CC2)nc2ccccc12 | -21 | .
O=c1[nH]c(O)c(C=Nc2ccc(F)c(Cl)c2)c(=O)[nH]1 | 11 | 2.9
C[N+]1(C)CCOC(O)(c2ccc(-c3ccc(C4(O)C[N+](C)(C)CCO4)cc3)cc2)C1 (stereo not given) | . | 0.6
Cc1c2ccncc2c(C)c2c1[nH]c1ccccc12 | . | 4.4
COc1ccccc1C(C)NC(C)C(=O)c1c(N)n(C)c(=O)n(C)c1=O (stereo not given) | 1 | .
CCOP(=S)(OCC)C1(Nc2ccc(C)cc2)CCCCC1 | 4 | -0.8
N#Cc1csc([N+](=O)[O-])c1 | . | -3.8
O=C1C=C2C=CC3CC2(O1)C1CCCCN31 (stereo not given) | -3 | .
O=C(NC1CCCCC1)Oc1cc2oc(=O)sc2cc1Cl | -1 | 8.9
COCCOC(=O)C1=C(N)OC(C)=C(C(=O)OC)C12C(=O)Nc1ccc(Br)cc12 (stereo not given) | . | -1.3
CCOC(=O)c1c(CN2CCCC2)n(Cc2ccccc2)c2cc(Br)c(O)cc12 | . | -2.5
CN(C(=O)COC(=O)c1cn(C)c2ccccc12)C1CCCCC1 | 8 | .
CN(C)CCN(C(=O)Cc1ccccc1)c1nc2cc3c(cc2s1)OCCO3 | -14 | .
CN(C)c1cccc2c(C#N)ccc(N(C)C)c12 | -16 | 1.8
COc1ccc(C(=O)c2nc3ccccc3n2C(C)C)cc1OC | 11 | 1.5
COc1cc(C=C2C(=O)NC(=O)NC2=O)ccc1OCc1ccc(C(=O)O)cc1 | . | 1.0
Cc1cc(C)c2oc(-c3ccc(N/C=c4\c(C)c(C#N)c5nc6ccccc6n5c4=O)cc3)nc2c1 | -108 | .
CC1CN=C(Nc2ccc(Cl)cc2)S1 (stereo not given) | . | 0.2
COC(C)C(O)(C(=O)OC1=CCN2CC[C@H](O)[C@@H]12)C(C)C (stereo not given in full) | 5 | -0.6
CCN(CC)c1nc2c(C)cccn2c(=O)c1C=C1C(=O)NC(=O)NC1=O | 3 | 4.0
C[n+]1ccsc1-c1ccccc1 | -17 | .
CCOc1cc(/C=C2\C(O)C3CCN2CC3)cc(Cl)c1OCC (stereo not given) | 6 | 0.5
CCOc1cc2c(cc1OCC)-n1cccc1C(c1cc(C)c(OC)cc1C)NC2 (stereo not given) | 7 | -5.2
COc1ccc(C(=O)N2CCC3(CC2)OCCO3)cc1 | 12 | -0.6
CCN(CC)c1ccc2c3c(c(=O)oc2c1)C(c1cc2c(C)cc(C)cc2[nH]c1=O)C(C#N)=C(N)O3 (stereo not given) | -6 | 22
O=C(COc1cccc(Oc2ccccc2)c1)N1CCN(Cc2ccccc2)CC1 | -12 | -5.4
CN1C[C@H](CNC(=O)OCc2ccccc2)C[C@@H]2c3cccc4c3c(cn4C)C[C@H]21 | . | -0.2
Nc1c(C(=O)NC2CC2)c2nc3ccccc3nc2n1Cc1ccccc1 | -10 | .
C=CC1CC2CCN1C(C(=O)c1ccnc3ccc(OC)cc13)C2 (stereo not given) | . | -3.8
O=C1NC(=O)C(CCc2ccncc2)(Cc2ccc(Br)s2)C(=O)N1 | 3 | -1.2
COC(=O)c1ccc2c(c1)N=C(Cl)c1ccccc1S2 | 17 | .
COC(=O)N1CC2CC(C1)c1cccc(=O)n1C2 (stereo not given) | -17 | .
COc1cc(C2NC(=O)NC(c3ccc(O)c(OC)c3)C23C(=O)NC(=O)NC3=O)ccc1O (stereo not given) | 18 | .
Cn1nc(-c2ccc(OCC(=O)N3CCN(Cc4ccccc4)CC3)cc2)c2ccccc2c1=O | 1 | -0.2
COc1ccc2[nH]c(C)c(CCN3CCC(=O)C(C)C3C)c2c1 (stereo not given) | -12 | .
CN1CCC2=C(C1)C(=O)NC1(CCCCC1)N2 | 20 | -1.4
C=CCN1C(=O)NC(=O)/C(=C/c2cn(Cc3ccc(Cl)cc3)c3ccccc23)C1=O | . | 0.2
CCCCN(C)c1nc2ccccc2c(=O)n1-c1ccc(Cl)cc1 | 16 | 0.6

Carrying on:
Structure | S aureus helic | MgrA DNA FP
Nc1ccccc1C(=O)OC1CSC1 | 13 | 10
NCCc1nc2ccccc2s1 | 11 | .
CC(C)(C)C(=O)NC1CCSC1=O (stereo not given) | 1 | -0.8
CC(C)N(CCC(C(N)=O)(c1ccccc1)c1ccccn1)C(C)C (stereo not given) | . | 0.3&0.7
COc1ccc2c(c1)C13CCCC[C@@H]1C(C2)N(C)CC3 (stereo not given in full) | . | -0.7
OC1/C(=C/c2ccccc2C(F)(F)F)N2CCC1CC2 (stereo not given) | . | -2.0
O=C(c1ccccc1)c1cc(Cl)ccc1NC(=O)c1cc2ccccc2oc1=O | . | -1.2
COC(=O)C1=C(N)OC(C)=C(C(=O)OC(C)C)C12C(=O)Nc1ccccc12 (stereo not given) | . | 3.4
CCN(CC)C(=O)c1ccc(NC(=O)Nc2ccccc2F)cc1 | -5 | .
CN1C(=O)C2(c3ccccc31)C(C(=O)N1CCC3(CC1)OCCO3)CC1CCCN12 (stereo not given) | 16 | .
CCN1C[C@]2(COC)CC[C@H](O)[C@@]34C5C[C@@H]6[C@@H](OC)C[C@@](O)(C5[C@H]6OC(C)=O)[C@@H](CC23)[C@@H]14 (stereo not given in full) | -3 | .
N=C1c2ccccc2CN1NC(=O)c1ccccc1 | 14 | .
CNC(C)[C@@H]1CC[C@@H](N)[C@@H](OC2[C@@H](N)C[C@@H](N)[C@H](OC3OC[C@](C)(O)[C@H](NC)[C@H]3O)[C@H]2O)O1 (stereo not given in full) | . | 6.0
COc1ccc(Cc2nccc3cc(OC)c(OC)cc23)cc1OC | . | -1.1&2.9
COc1ccc(-n2c(C)cc(/C=C3/C(=O)NC(=O)N(Cc4ccco4)C3=O)c2C)cc1 | 4 | 7.0
CC(=O)Nc1ccc(C=C(C#N)C#N)cc1 | . | 1.5
COc1cc(C=C2C(=O)NC(=O)NC2=O)cc(OC)c1OC | . | 7.0
COCCNC(=O)C1c2ccccc2C(=O)N2CCCCC12 (stereo not given) | 11 | .
O=C(Nc1ccccc1Cl)OC1CN2CCC1CC2 (stereo not given) | . | 2.1
COc1ccc(C(C(=O)NC2CCCCC2)N(CCN2CCOCC2)C(=O)Cc2c[nH]c3ccccc23)cc1OC (stereo not given) | 2 | -0.4
CC(C)C(O)(C(=O)OC[C@@H]1CC[N+]2([O-])CCC[C@@H]12)C(C)O (stereo not given in full) | 14 | .
CCc1nc2cccnc2n1-c1ccc(CC(=O)N2CCN(C)CC2)cc1 | 14 | .
COc1cc(CNCCc2ccccc2)cc(OC)c1 | -8 | 1.1
CCN(CC)C(=O)c1ccc2c(c1)C1C3CCC(C3)C1C(c1ccccc1)N2 (stereo not given) | 12 | -1.2
Cc1c(C(=O)Cn2cnc3ccccc32)c2ccccc2n1C | 4 | -9.8
CCCCC1CCC2(C)C3=C(CCC3)CCN2C1 (stereo not given) | 14 | .
CC1CCC2(NC1)O[C@H]1C[C@H]3[C@@H]4CC=C5C[C@@H](O)CC[C@]5(C)[C@H]4CC[C@]3(C)[C@H]1[C@@H]2C (stereo not given in full) | . | 3.4
CC(=O)OCc1ccc(C=C(C#N)C#N)o1 | -18 | .
COc1cccc(/C=C/[N+](=O)[O-])c1 | . | -1.5
O=C(C1CCCO1)N1CCC2(CC1)OCCO2 (stereo not given) | 17 | 0.0
CCc1[o+]c(-c2ccc(OC)cc2)cc2cc(OC)c(OC)cc12 | -4 | -3.3
CC1(C)C(C(=O)Nc2cc(Cl)ccn2)C1(C)C | 2 | 0.8
C/C(=N/O)c1c(C)[nH]c2ccccc12 | -44 | .
Cc1nn(Cc2ccccc2Cl)c(Cl)c1C(=O)OCC(=O)NCc1ccco1 | -10 | .
Cn1cc(C(=O)OCc2ccc(C#N)cc2)c2ccccc21 | 17 | .
Cn1cc(C(=O)c2ccccc2)c2ccccc21 | -10 | 2.5
N#CC1C(=O)c2ccccc2C1=O | . | 13
c1cc2c(cc1CN1CCNCC1)OCCO2 | 5 | .
O=C(NC1CCCCC1)c1cc2ccccc2oc1=O | 6 | .
Cc1sc(-n2c(C)cc(C=C3C(=O)NC(=S)NC3=O)c2C)c(C#N)c1C | 12 | 24
O=C1NC(=O)N(CCc2ccc(F)cc2)C(=O)/C1=C/c1cccc2ccccc12 | 2 | 21
O=c1c2ccccc2nc(CSc2ncnc3ccccc23)n1-c1ccccc1 | 4 | .
CC(Cc1ccccc1)NC=O (stereo not given) | 19 | -2.1
COC(=O)C1=C(C)N(C)C(=O)C12c1ccccc1-c1oc(N)nc12 (stereo not given) | -12 | 1.5
NCC(CC(=O)O)c1ccc(Cl)cc1 (stereo not given) | . | 6.0&-0.2
O=C(O)c1[nH]c2ccc(Cl)cc2c1CC(=O)N1CCC2(CC1)OCCO2 | 10 | -0.1
Nc1nonc1C1=NOC(c2nonc2N)=NO1 | -5 | 24
CC[C@H]1C2CC3[C@@H]4N(C)c5ccccc5[C@]45C[C@@H](C2C5O)N3[C@@H]1O (stereo not given in full) | . | 0.9
Cn1c(O)c(/C=N/C(N)=S)c(=O)n(C)c1=O | -142 | .
CN(C(=O)Oc1ccccc1)c1ccc(C(O)(C(F)(F)F)C(F)(F)F)cc1 | 18 | 0.2
C1=CC2CCC(C1)N2CCN1C2C=CCC1CC2 | 9 | -4.6
CCCCCCCCCCCCCCCCOC[C@@H](COP(=O)([O-])OCC[N+](C)(C)C)OC(C)=O | . | 2.5
CCOC(=O)N1CCC(NC(=O)CCc2nc(C3=CCN(C)CC3)no2)CC1 | -1 | 3.7
CS(=N)(=O)CC[C@H](N)C(=O)O (stereo not given in full) | . | -2.9
COc1nc(NCC2CCCO2)nc(N2CC3CC(C2)c2cccc(=O)n2C3)n1 (stereo not given) | 15 | 3.5
COc1ccc2c(c1)c(C(=O)N1CCCC1)c(C)n2Cc1ccccc1 | 11 | 2.4
CN1C(=O)C(=Cc2coc3ccccc3c2=O)C(=O)N(C)C1=O | -5 | .
FC(F)(F)C1=NC(C(F)(F)F)=NP(N2CCCCC2)(N2CCCCC2)=N1 | -6 | .
OC(CNC1CCCCCC1)C(F)(F)F (stereo not given) | . | 2.6
Cc1cccc(NC(=O)C2C(C)(C)C2(C)C)c1C | 3 | 0.4

Already shown: an excerpt of the list.
Structure | S aureus helic | MgrA DNA FP
O=C1NC(=O)N(CCc2ccc(F)cc2)C(=O)/C1=C/c1cccc2ccccc12 | 2 | 21
O=c1c2ccccc2nc(CSc2ncnc3ccccc23)n1-c1ccccc1 | 4 | .
CC(Cc1ccccc1)NC=O (stereo not given) | 19 | -2.1
COC(=O)C1=C(C)N(C)C(=O)C12c1ccccc1-c1oc(N)nc12 (stereo not given) | -12 | 1.5
NCC(CC(=O)O)c1ccc(Cl)cc1 (stereo not given) | . | 6.0&-0.2

(list continues)
Structure | S aureus helic | MgrA DNA FP
Cc1nn(Cc2ccccc2Cl)c(=N)s1 | . | 2.4
CC(C)c1ccc(CN2CCNCC2)cc1 | -16 | .
N#CCCNCc1cccnc1 | -6 | .
COc1ccc(C2CC(O)CC(c3ccc(OC)cc3)C23C(=O)NC(=O)NC3=O)cc1 (stereo not given) | -4 | 0.5
CC(=O)N1CN(C(C)=O)CN(C(C)=O)C1 | -11 | 2.2
COc1cc(CN2CCN(C(=O)COc3ccccc3)CC2)cc(OC)c1OC | -12 | -0.1
CCCC1=C(C(=O)OCC)C2(C(=O)Nc3ccccc32)C(C#N)=C(N)O1 (stereo not given) | . | -1.5
CCC(CC)NC1CCCCC1OC (stereo not given) | -2 | -0.7

Full records, quoted from the list. Values in the order: S aureus helic | MgrA DNA FP
`CCC(CC)NC1CCCCC1OC` (stereo not given) is entered as -2 | -0.7
`Cc1nn(Cc2ccccc2Cl)c(=N)s1` is entered as . | 2.4
